HCMV NEC inh – disrupts HCMV UL50-UL53 complex binding; HTRF UL50-UL53 interaction, normalized percent inhibition; hit rate 0.15% among 190,000; inhibition, % (no concentration beside the values); AID 1918969;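 active = both replicates at 50% or more, plus weaker picks with an unusually low signal ratio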;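 also: stock transfer was 100 nL into about 20 µL; 0% = negative control wells and 100% = wells with untagged competitor protein; inactives centre near -12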
Sa growth 42C – inhibitors of Staphylococcus aureus growth at 42 °C. relative growth, % (test concentration not listed). AID 720641. hit rate 0.53% among 170,000. S. aureus RN4220 growth, OD600, 20 h; stronger effect = lower value;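 active = growth at 42 °C up to 50% and 20 or more points under that at 30 °C, or under 10% at both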;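 also: 300 nL library stock went into each well; scaled to the means of positive and negative controls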
GIV Gai3 FP – blocks GIV peptide binding to rat Galpha-i3 | percent of control (FP), % (concentration not given with the values) | Galpha-i3/FITC-GIV peptide fluorescence polarization, 90 min; stronger effect = lower value; scaled: aluminum fluoride 0%, vehicle 100% | P08753 | hit rate 0.42% among 210,000;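 active = replicate mean at 85% of control or lower, very high polarization wells dropped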;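 also: wells of about 15 µL received 100 nL stock; the first replicate is given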
Target sequence (P08753 whole entry, looked up): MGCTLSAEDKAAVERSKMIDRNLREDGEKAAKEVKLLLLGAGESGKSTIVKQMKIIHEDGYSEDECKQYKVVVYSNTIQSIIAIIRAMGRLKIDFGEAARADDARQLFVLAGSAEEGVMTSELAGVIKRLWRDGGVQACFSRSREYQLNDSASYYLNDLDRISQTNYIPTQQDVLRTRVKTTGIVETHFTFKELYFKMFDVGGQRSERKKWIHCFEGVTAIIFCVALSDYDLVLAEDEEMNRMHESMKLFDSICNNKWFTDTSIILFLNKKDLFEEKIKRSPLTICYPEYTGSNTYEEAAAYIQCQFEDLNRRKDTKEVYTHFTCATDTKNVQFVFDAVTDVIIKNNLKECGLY
Sa growth 42C second temp – recorded beside Sa growth 42C, whose call it bears; relative growth, %; measured here: growth at 30 °C;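 optical density after 20 h as mean of two plates; 100% = untreated growth and lower means inhibition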
Starred values were filed as active, the others as inactive; . = no result given; & = joins results of further samples. An unsorted share of the library; overall some 0.83% were active at least once.

(1) Cc1cnc(N(C(=O)c2c(-c3ccccc3)noc2C)C(=O)c2c(-c3ccccc3)noc2C)c(C)n1
(2) CCOc1ccccc1NC(=O)CSc1nc(O)cc(=O)n1C1CCCC1
(3) CC1CCN(S(=O)(=O)c2cc(C(=O)N3CCOCC3)cs2)CC1
(4) O=C(O)CSCCc1ccccc1
(5) CCOC(=O)c1ccc(NC(=O)CCN2N=C(c3ccccc3)CCC2=O)cc1
(6) Cc1cc2c3c([nH]c2cc1S(=O)(=O)Nc1ccc(S(N)(=O)=O)cc1)CCCC3=O
compound no.,1,2,3,4,5,6
HCMV NEC inh,-55,-4,-18,0,-21,-24
Sa growth 42C,89,113,.,110,85,.
Sa growth 42C second temp,88,93,.,96,86,.
GIV Gai3 FP,102,.,106,104,101,100

(7) COc1ccc(C)cc1NCc1nnc2n1CCCCC2
(8) Clc1cccc(N=NN2CCOCC2)c1Cl
(9) O=C(Cn1cnc2c(nnn2-c2cccc(Cl)c2)c1=O)NCC1CCCO1 (stereo unspecified)
(10) O=C(NC1CCCC1)C1CCN(C(=O)c2sccc2-n2cccc2)CC1
(11) CC(C)=CC(=O)Nc1nc2ccc(C)cc2s1
(12) CCN1C(=O)CC(C(=O)Nc2ccc(OC)cc2)SC1=Nc1ccc(C)c(C)c1 (stereo unspecified)
compound no.,7,8,9,10,11,12
HCMV NEC inh,.,-14,.,.,-2,-25
Sa growth 42C,80,111,93,121,121,109
Sa growth 42C second temp,88,91,94,79,112,74
GIV Gai3 FP,103,98,105,101,104,104

Some values from above:
In HCMV NEC inh, CCOC(=O)c1ccc(NC(=O)CCN2N=C(c3ccccc3)CCC2=O)cc1 shows -21
In GIV Gai3 FP, Clc1cccc(N=NN2CCOCC2)c1Cl shows 98
In Sa growth 42C, O=C(O)CSCCc1ccccc1 shows 110
In Sa growth 42C, O=C(Cn1cnc2c(nnn2-c2cccc(Cl)c2)c1=O)NCC1CCCO1 (stereo unspecified) shows 93
In Sa growth 42C, CCN1C(=O)CC(C(=O)Nc2ccc(OC)cc2)SC1=Nc1ccc(C)c(C)c1 (stereo unspecified) shows 109

New compounds follow.
(13) Cc1cc2cc(CNC(=O)CC(C)(C)C)ccc2[nH]1
(14) CSc1s[nH]c(=O)c1C#N
(15) Cc1ccc(CNc2ccc(S(=O)(=O)C(C)(C)C)nn2)cc1
(16) O=c1oc2c(CN3CCCC3)c(O)ccc2cc1-c1ccccc1
(17) COCc1cc(C)nc2sc3c(c12)NC(c1ccc(NC(C)=O)cc1)N(c1ccc(C)cc1)C3=O (stereo unspecified)
(18) CCOc1ccc(NC(=O)COC(=O)CCC2CCCCC2)cc1
compound no.,13,14,15,16,17,18
HCMV NEC inh,-39,-2,-10,.,-49,-18
Sa growth 42C,86,89,.,77,104,118
Sa growth 42C second temp,84,92,.,97,91,90
GIV Gai3 FP,102,.,100,115,104,.

Among those listed so far, these have a thiophene ring, fused or not:
(3) CC1CCN(S(=O)(=O)c2cc(C(=O)N3CCOCC3)cs2)CC1
(10) O=C(NC1CCCC1)C1CCN(C(=O)c2sccc2-n2cccc2)CC1
(17) COCc1cc(C)nc2sc3c(c12)NC(c1ccc(NC(C)=O)cc1)N(c1ccc(C)cc1)C3=O (stereo unspecified)
compound no.,3,10,17
HCMV NEC inh,-18,.,-49
Sa growth 42C,.,121,104
Sa growth 42C second temp,.,79,91
GIV Gai3 FP,106,101,104

Carrying on.
(19) O=C(CC(c1cccs1)N1Cc2ccccc2C1=O)Nc1cccc(F)c1 (stereo unspecified)
(20) CC1CCCCC1NC(=O)C1CCN(C(=O)c2cc3sccc3n2Cc2ccc(F)cc2)CC1 (stereo unspecified)
(21) O=C(CSc1nncs1)NC1CCCc2ccccc21 (stereo unspecified)
(22) O=C(O)CCNS(=O)(=O)c1ccc2ccccc2c1
(23) O=C(NCCC1=CCCCC1)C1CC(O)CN1C(=O)Nc1ccccc1 (stereo unspecified)
(24) OC(c1ccccc1)c1nc2ccccc2s1 (stereo unspecified)
compound no.,19,20,21,22,23,24
HCMV NEC inh,.,.,-10,-13,2,-10
Sa growth 42C,131,92,102,109,108,101
Sa growth 42C second temp,86,91,99,94,83,78
GIV Gai3 FP,97,100,.,.,102,96

(25) COc1ccc(/C=C2/C(=O)c3ccc(C(=O)O)cc3C2=O)cc1OC
(26) Cc1ccc(CNC(=O)c2cc(-c3ccc(C)cc3)nc3n[nH]c(-c4ccc(F)cc4)c23)cc1
(27) O=C(NCCc1ccccc1)c1nn2c(c1Br)NC(c1cccs1)CC2C(F)(F)F (stereo unspecified)
(28) CCOC(=O)c1c(-c2ccc(Cl)cc2)nn2c1NCN(Cc1cccc(OC)c1)C2
(29) COc1ccc(NC(=O)CCCn2c(=O)c3sccc3n(Cc3ccccc3F)c2=O)cc1
(30) O=C(Nc1ccccc1F)c1cnn(-c2ccc(Br)cc2)c1
compound no.,25,26,27,28,29,30
HCMV NEC inh,.,.,7,-30,-8,-31
Sa growth 42C,103,108,.,112,106,.
Sa growth 42C second temp,86,69,.,88,85,.
GIV Gai3 FP,91,105,97,104,105,104

(31) O=C(Nc1cccc(-c2cnco2)c1)C1COc2ccccc2O1 (stereo unspecified)
(32) O=C(Nc1ccc(S(=O)(=O)Nc2ccccc2Oc2ccc(Cl)cc2Cl)cc1)C1CC1
(33) CCC1(C)CC(=O)N(c2ccc(C(=O)O)c(O)c2)C1=O (stereo unspecified)
(34) CCN1CCSc2ccc(C(=O)NC(C)c3ccccc3)cc21 (stereo unspecified)
(35) CCOc1ccccc1CNCCCSc1nnnn1C
(36) CCn1c(C(=O)NCCc2c[nH]c3ccccc23)c(N2CCCC2=O)c2cc(F)ccc21
compound no.,31,32,33,34,35,36
HCMV NEC inh,-25,7,5,10,-44,14
Sa growth 42C,98,123,83,88,100,.
Sa growth 42C second temp,87,105,95,90,81,.
GIV Gai3 FP,105,99,105,106,103,106

(37) COc1ccc(CCNC(=O)C2CCC(CNc3c(N4CCCC4)c(=O)c3=O)CC2)cc1OC (stereo unspecified)
(38) COC(=O)c1ccc(COC(=O)CCc2nc3ccccc3s2)o1
(39) O=C(NCc1ccc2c(c1)OCO2)c1cc(-c2ccc3c(c2)OCCO3)on1
(40) Cc1nc2sccn2c(=O)c1S(=O)(=O)Nc1ccc(N2CCN(C(=O)C(C)C)CC2)cc1
(41) O=C(c1ccco1)N(Cc1ccccc1O)c1ccc(Cl)cc1
(42) CCCCN(CC)CCCNC(=O)c1c(C)oc2ncnc(N3CCOCC3)c12
compound no.,37,38,39,40,41,42
HCMV NEC inh,17,-12,6,-12&-16,11,.
Sa growth 42C,.,71,.,108,105,85
Sa growth 42C second temp,.,96,.,90,108,92
GIV Gai3 FP,107,.,102,103&97,109,98

(43) CC(C)c1ccc(NC(=O)C2Cc3ccccc3N2C(=O)c2ccccc2)cc1 (stereo unspecified)
(44) CCOC(=O)c1noc2ncn(CC(=O)Nc3ccc(OC)c(Cl)c3)c(=O)c12
(45) CCOC(=O)c1cc(OC(C)=O)c2ccc(OC)c(OC)c2c1
(46) CCOc1cc(/C=C/C(=O)C2C(=O)C=C(C)OC2=O)ccc1OC (stereo unspecified)
(47) O=c1[nH]c(=O)n(Cc2cccnc2)c2c1CN(C1CCCCC1)CN2
(48) Cc1nc(SCC(=O)Nc2sc3c(c2C(N)=O)CCCC3)cc(-c2ccccc2)n1
compound no.,43,44,45,46,47,48
HCMV NEC inh,.,-18,-3,3,-15,-14
Sa growth 42C,129,99,102,88,.,.
Sa growth 42C second temp,64,84,100,92,.,.
GIV Gai3 FP,109,107&105,100,.,98,100

(49) COC(=O)c1ccc2c(=O)n(CC(=O)NCCN3CCc4ccccc4C3)c(=S)[nH]c2c1
(50) CN1C(=O)c2ccc(C(=O)NCc3ccccc3)cc2C1=O
(51) COc1ccccc1CNC(=O)c1cc2c(s1)-c1ccccc1OC2
(52) CCC1C(=O)N=C(SCC(=O)Nc2ccc(C(=O)OC)cc2)NC1=O (stereo unspecified)
(53) CCOC(CNc1nc(-c2ccc(C)cc2)nc2ccccc12)OCC
(54) COc1cccc(C2C3=C(CC(C)(C)CC3=O)OC3=C2C(=O)CC(C)(C)C3)c1OCc1ccccc1Cl
compound no.,49,50,51,52,53,54
HCMV NEC inh,-20,-10,-35,2,-13,12
Sa growth 42C,.,95,120,105,.,.
Sa growth 42C second temp,.,95,79,106,.,.
GIV Gai3 FP,109,109,102,110,103,104

(55) Cc1cc(SCC(N)=O)n2c(nc3ccccc32)c1C#N
(56) O=S(=O)(NCc1ccco1)c1ccc(-c2cc(C(F)(F)F)on2)o1
(57) Cc1ccc2nc(Cc3ccc(N)cc3)[nH]c2c1
(58) COc1ccc(CNC(=O)CCCn2nc(C)c3sc4ccccc4c3c2=O)cc1OC
(59) Cc1cc(-c2ccc(C)c(S(=O)(=O)NCc3cccc(Br)c3)c2)on1
(60) CC1(C)CC(=O)C=C(Sc2nc3cc(Cl)ccc3s2)C1
compound no.,55,56,57,58,59,60
HCMV NEC inh,-100,-15,-13,-26,.,-31
Sa growth 42C,83,.,.,129,135,47
Sa growth 42C second temp,86,.,.,96,80,44
GIV Gai3 FP,.,108,108,100,104,104

Part of the list above in order of molar mass, lowest first:
(57) Cc1ccc2nc(Cc3ccc(N)cc3)[nH]c2c1
(55) Cc1cc(SCC(N)=O)n2c(nc3ccccc32)c1C#N
(60) CC1(C)CC(=O)C=C(Sc2nc3cc(Cl)ccc3s2)C1
(54) COc1cccc(C2C3=C(CC(C)(C)CC3=O)OC3=C2C(=O)CC(C)(C)C3)c1OCc1ccccc1Cl
compound no.,57,55,60,54
HCMV NEC inh,-13,-100,-31,12
Sa growth 42C,.,83,47,.
Sa growth 42C second temp,.,86,44,.
GIV Gai3 FP,108,.,104,104

Later entries:
(61) Cn1cc(C(F)(F)F)nc1-c1ccc(OCC(O)CNCCOc2ccc(O)c(C(N)=O)c2)cc1 (stereo unspecified)
(62) O=C(/C=C/c1ccccc1)N1CCCC1
(63) CCn1c(SCC(=O)Nc2cccc(Cl)c2Cl)nc2ccccc2c1=O
(64) O=C(NCc1ccccc1)C1CCN(c2nc3ccc(Br)cc3s2)CC1
(65) Cc1cccc(N(CC(=O)NCCSCc2ccccc2)S(=O)(=O)c2ccccc2)c1C
(66) CCOc1ccc(NC(=O)CCC(=O)n2nc(-c3ccccc3)cc2-c2ccccc2)cc1
compound no.,61,62,63,64,65,66
HCMV NEC inh,-23,-25,0,10,-36,-21
Sa growth 42C,.,108,91,96,85,99
Sa growth 42C second temp,.,110,73,86,86,70
GIV Gai3 FP,101,101,.,105,101,.

(67) CCN(CC)CC#CCN1c2ccccc2Sc2ccccc21
(68) CC(=O)Nc1ccc(C(=S)NCC(c2ccco2)N2CCCCC2)cc1 (stereo unspecified)
(69) CC1CN=C(N(C(=O)Nc2ccccc2)c2ccc(OC(F)(F)F)cc2)S1 (stereo unspecified)
(70) CC(=O)N1c2ccccc2NC2=C(C(=O)CC(c3cccc([N+](=O)[O-])c3)C2)C1c1ccc(Cl)cc1 (stereo unspecified)
(71) O=S(=O)(Nc1cccc(-c2ccc(N3CCCCCC3)nn2)c1)c1ccccc1
(72) Cc1cc2c(cc1S(=O)(=O)N1CCCC(C(=O)N3CCOCC3)C1)OCC(=O)N2 (stereo unspecified)
compound no.,67,68,69,70,71,72
HCMV NEC inh,.,-12,4,-14,.,-4
Sa growth 42C,121,84,94,.,133,.
Sa growth 42C second temp,59,96,94,.,111,.
GIV Gai3 FP,99,.,.,101,109,95

(73) COC(=O)c1ccc(NC(=O)CC2C(=O)N(c3ccc(Cl)cc3)C(=O)N2Cc2ccco2)cc1 (stereo unspecified)
(74) CN(Cc1ccccc1)C(=O)CSc1cc(=O)n(C)c2ccccc12
(75) CC(=O)N/C(=C\c1ccccc1)C(=O)NC1CCCCC1C (stereo unspecified)
(76) COC(=O)/C=c1\sc2nc(N)nn2c1=O
(77) Cc1ccc(OC(=O)c2cc(-c3ccccc3)nc3ccc(C)cc23)cc1
(78) COc1ccc(NS(=O)(=O)c2ccc3c(c2)CCO3)cc1
compound no.,73,74,75,76,77,78
HCMV NEC inh,.,7,.,-17,-38,-1
Sa growth 42C,94,97,102,123,103,96
Sa growth 42C second temp,61,67,89,81,81,101
GIV Gai3 FP,102,111,105,103,110,109

Gathered by group: those above with a CF3 group.
(27) O=C(NCCc1ccccc1)c1nn2c(c1Br)NC(c1cccs1)CC2C(F)(F)F (stereo unspecified)
(56) O=S(=O)(NCc1ccco1)c1ccc(-c2cc(C(F)(F)F)on2)o1
(61) Cn1cc(C(F)(F)F)nc1-c1ccc(OCC(O)CNCCOc2ccc(O)c(C(N)=O)c2)cc1 (stereo unspecified)
(69) CC1CN=C(N(C(=O)Nc2ccccc2)c2ccc(OC(F)(F)F)cc2)S1 (stereo unspecified)
compound no.,27,56,61,69
HCMV NEC inh,7,-15,-23,4
Sa growth 42C,.,.,.,94
Sa growth 42C second temp,.,.,.,94
GIV Gai3 FP,97,108,101,.

(further entries)
(79) Cn1c(=O)oc2cc(S(=O)(=O)NCCn3c(-c4ccncc4)nc4cccnc43)ccc21
(80) O=C(NCCN1CCOCC1)c1csc2c1CCCC2
(81) COc1ccc(-c2c(C)c3ccc(O)cc3oc2=O)cc1OC
(82) Cc1nnc(NC(=O)CSc2nccn2-c2ccc(Cl)cc2)s1
(83) CC1=CC(C)(C)N(Cc2ccccc2)c2ccccc21
compound no.,79,80,81,82,83
HCMV NEC inh,-4,-23,-36,.,0
Sa growth 42C,.,97,99,91,72
Sa growth 42C second temp,.,92,88,98,84
GIV Gai3 FP,109,100,105,102,.
